# Mtb MbtI inh: blocks the Mycobacterium tuberculosis siderophore enzyme MbtI; P9WFX0; AID 493033; hit rate 0.89% among 100,000; purified MbtI enzyme, fluorescence intensity read-out; inhibition, %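 (about 17 µg/mL by stock and volumes)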;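 active means above 50% in both replicates, above 80% if mildly self-fluorescent; inactive means the rest, strongly fluorescent compounds included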;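 further: 0% = mean of negative and 100% = mean of positive controls; one replicate is shown; some compounds called inactive have numbers as strong as hits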
# Target sequence (P9WFX0 whole entry, looked up): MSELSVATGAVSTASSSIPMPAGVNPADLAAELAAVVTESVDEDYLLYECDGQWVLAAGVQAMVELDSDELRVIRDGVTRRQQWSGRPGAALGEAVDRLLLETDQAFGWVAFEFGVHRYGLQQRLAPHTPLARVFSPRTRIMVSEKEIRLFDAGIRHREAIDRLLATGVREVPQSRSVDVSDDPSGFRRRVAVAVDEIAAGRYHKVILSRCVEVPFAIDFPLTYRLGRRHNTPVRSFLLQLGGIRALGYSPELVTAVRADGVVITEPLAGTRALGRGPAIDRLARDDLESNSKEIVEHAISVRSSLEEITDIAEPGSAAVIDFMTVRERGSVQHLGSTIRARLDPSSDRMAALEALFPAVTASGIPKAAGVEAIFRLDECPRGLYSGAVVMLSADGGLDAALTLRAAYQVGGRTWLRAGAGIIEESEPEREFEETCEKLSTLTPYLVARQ
# Polio RdRp inh: poliovirus RNA polymerase inhibition; poliovirus polymerase elongation, fluorescence polarization; stronger effect = lower value; % elongation, % (compound at 16.7 µg/mL); hit rate 0.66% among 150,000; AID 588519; in the data active means % elongation below about 90%; further: some results filed as inactive read as strong as hits
# Mtb MenB inh: blocks the Mycobacterium tuberculosis MenB enzyme. P9WNP5. MenB enzyme assay, absorbance read-out; some hits fall short of the stated cut. inhibition, %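 (about 12 µg/mL by stock and volumes)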. hit rate 0.43% among 100,000;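 active means mean of two replicates above 30%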;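 further: 0% = no compound and 100% = wells with inactive enzyme; the first replicate is given; strong numbers were not always called active; inactives centre near -10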
# Target sequence (P9WNP5 whole entry, looked up): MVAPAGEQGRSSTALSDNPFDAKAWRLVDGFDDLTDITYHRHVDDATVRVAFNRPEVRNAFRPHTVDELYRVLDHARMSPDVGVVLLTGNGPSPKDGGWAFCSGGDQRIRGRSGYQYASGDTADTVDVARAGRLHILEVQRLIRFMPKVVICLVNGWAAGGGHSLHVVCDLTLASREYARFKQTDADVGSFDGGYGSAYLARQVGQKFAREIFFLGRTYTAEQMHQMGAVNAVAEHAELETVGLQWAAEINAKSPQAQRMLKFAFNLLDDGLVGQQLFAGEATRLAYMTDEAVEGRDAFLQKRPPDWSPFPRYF
# Polio RdRp inh intensity: recorded beside Polio RdRp inh, whose call it bears; % elongation; measured here: total intensity read-out; formula for this scale not given here;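 total fluorescence in place of polarization; lower means less elongation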
# An asterisk follows results filed as active; . = no result given.
SMILES,Mtb MbtI inh,Polio RdRp inh,Polio RdRp inh intensity,Mtb MenB inh
O=C1COc2ccc(C(=O)COC(=O)c3ccc(S(=O)(=O)N4CCOCC4)cc3)cc2N1,-3,105,112,6
O=c1oc2ccccc2n1CCOc1cccc2ccccc12,.,104,112,-36
COc1ccc(S(=O)(=O)N2CCc3ccccc3C2)cc1,.,107,111,2
O=C1NC(c2ccccc2)(C(F)(F)F)SC2=CCCCCN12 (stereo not drawn),1,103,106,-30
O=C(OCC(=O)c1c[nH]c2ccccc12)c1ccc(N2CCCC2=O)cc1,4,102,105,-5
CC(=O)Nc1ccc(-n2cccc2)cc1,.,103,108,-14
CC(=O)Nc1c(I)c(C(=O)NC2[C@H](O)OC(CO)[C@@H](O)[C@H]2O)c(I)c(N(C)C(C)=O)c1I (stereo partly drawn),-3,101,103,-1
O=C(O)COCC1CCCCO1 (stereo not drawn),-3,101,100,0
Nc1cccc(-c2ncn[nH]2)c1,91,101,101,-53
Cc1ccccc1NC(=O)CSc1nccc(=O)[nH]1,0,104,101,-6
O=C(CSc1nccc(-c2cccs2)n1)Nc1ccccc1,-12,103,98,-17
O=C(C1CCC1)N1CCc2cc(S(=O)(=O)NCCN3CCOCC3)ccc21,-2,100,102,-5
Cc1nc(C)c(C(=O)O)o1,-7,101,102,-62
CCN1c2ccccc2C(=O)CS1(=O)=O,13,101,104,-42
CCN1CCN(C(=O)/C=C/c2ccc(OC)c(OC)c2)CC1,-2,101,101,.
CCOc1ccccc1Oc1coc2cc(OC(=O)N(C)C)ccc2c1=O,-1,99,103,0
CC(C)OC(=O)COc1ccc2c(c1)OC1(CC2c2ccccc2)CC(C)(C)NC(=O)N1 (stereo not drawn),.,100,105,-10
O=C(c1ccccc1)n1nnc2ccccc21,5,105,101,-61
CN1/C(=C/C(=O)CC(N)=O)C(C)(C)c2ccccc21,-13,108,121,.
COc1cc(/C=N/N2C(=O)c3ccccc3C2=O)ccc1OCC(=O)N1CCOCC1,5,99,94,-6
O=C(Cn1c2ccccc2c2cn[nH]c(=O)c21)NCc1cccnc1,-7,104,102,-10
O=C1CCCC(=NCc2ccco2)C1,11,99,100,.
COc1ccc(CC(=O)NCC2OCCc3ccccc32)cc1OC (stereo not drawn),-6,101,105,10
CCN(CCS(=O)(=O)c1ccc(C)cc1)C(=O)c1ccc(-c2cc(C(F)(F)F)nn2C)s1,-1,105,111,-6
NC(=O)CN1C(=O)CCSc2ccccc21,4,100,103,5
O=C(O)c1cc2cc(Cl)ccc2o1,15,101,101,-8
CSc1nnc(COc2ccc(Cl)cc2)n1C,-3,107,100,-53
Cn1c(CN2CCOCC2)nc2cc(N)ccc21,91,101,101,1
O=C(Nc1ccc(N2CCCCS2(=O)=O)cc1)c1ccccc1,-14,105,117,-17
Cc1oc2ccccc2c1-c1csc(-c2ccccc2)n1,2,103,106,-29
CC(C(=O)NCC1CCCO1)n1c2ccccc2c2cnn(C)c(=O)c21 (stereo not drawn),86,99,103,-15
CC(CN1CCCCC1)OC(=O)c1ccc2c(c1)OCO2 (stereo not drawn),98,101,102,31
O=C1CN(C(=O)Cn2cc(C(F)(F)F)ccc2=O)c2ccccc2N1,-17,99,107,5
Cc1cc(C)n(CCC(=O)N2CCN(S(=O)(=O)c3ccccc3)CC2)n1,-7,102,101,-6
OC1CCCN(Cc2cccc3ccccc23)C1 (stereo not drawn),-1,99,100,7
CCCc1cnc(N2CCN(S(C)(=O)=O)CC2)nc1,-1,102,95,26
Cc1ccc(NC(=O)C2CC(=O)N(C(C)C)C2)cc1 (stereo not drawn),.,103,114,-7
O=C(COC(=O)c1cccnc1Cl)c1ccccc1,-5,100,103,-37
O=c1c(=NO)c(=O)c2ccccc12,16,32*,41*,-16
N#Cc1ccc(NC(=O)Nc2ccccc2)cc1,-23,101,98,-13
CC(C)c1ccc(NC(=O)c2ccc3snnc3c2)cc1,-1,101,106,-18
N#C/C(=C\Nc1ccc(C(N)=O)cc1)c1nc(-c2ccccc2)cs1,-2,103,110,-21
CN(Cc1ccccc1)C(=O)CN1C(=O)c2cccnc2Oc2ccc(Cl)cc21,-7,100,102,10
Cn1cc(CNC(=S)NCc2ccc(Cl)cc2)cn1,-1,99,101,4
Cc1cccc(C(=O)N2CC(C)CC(C)C2)c1 (stereo not drawn),-1,101,103,-6
CCOc1cc(CN2CCN(CC3CC4C=CC3C4)CC2)ccc1OC (stereo not drawn),-5,101,101,1
COc1ccc(N2C(=O)CC(N3CCN(C(c4ccc(F)cc4)c4ccc(F)cc4)CC3)C2=O)cc1 (stereo not drawn),-1,103,104,-10
COC(=O)C1CN(C(=O)c2cccc(OC)c2)c2ccccc2O1 (stereo not drawn),0,100,102,-6
CNC(=S)N/N=C(\C)c1ccc2c(c1)OCCO2,24,101,102,-8
CN(C)/C=N/c1c(-c2nc(-c3ccc(Cl)cc3)cs2)cnn1C,-7,105,113,4
COc1cc(OC)cc(C(=O)N(c2ccccn2)c2ccccn2)c1,3,105,105,-13
COc1ccc(C2=Nc3ccccc3N=C(c3ccc4ccccc4c3O)C2)cc1,-2,94,124,-11
CCN(CC)c1ccc(N=Cc2ccccc2O)cc1,11,102,110,-76
COc1ccc(/C=C/C=C2/SC(=O)N(CC(=O)N3CCCC3)C2=O)cc1,-3,104,102,-397
CCC(C)NC(=O)C1CC(c2ccccc2F)=NO1 (stereo not drawn),-7,98,102,-3
CC(N=Cc1cccc(O)c1O)c1ccccc1 (stereo not drawn),44,94,98,-32
CCc1ccc(NC(=S)Nc2ccccc2C(C)C)cc1,-1,100,110,-14
O=C1NC2(CCCC2)C(=O)N1CCSc1ccccc1F,-2,103,108,-11
O=C(NCc1noc2ccccc12)Nc1ccc2c(c1)OCCO2,-13,103,107,-3
Cc1ccc(C(=O)Cn2c(=N)n(C)c3ccccc32)cc1,.,102,102,4
# The list goes on.
SMILES,Mtb MbtI inh,Polio RdRp inh,Polio RdRp inh intensity,Mtb MenB inh
O=C1CCN(C(=O)CCCn2c(=O)oc3ccccc32)CC1,-26,99,99,-17
CC(Oc1ccccc1)c1nc2ccccc2n1CCOc1ccccc1 (stereo not drawn),-11,103,107,-28
COc1ccc(-c2noc(CCC(=O)NCCCN3CCC(Cc4ccccc4)CC3)n2)cc1,-7,101,103,-2
O=C(O)C1CC(=O)N(CCc2ccccc2)C1 (stereo not drawn),1,102,96,-20
Cn1c(SCc2cc(=O)oc3cc(O)c(O)cc23)nc2ccccc21,14,99,105,-32
CCOC(=O)CC1=NC(=O)CS1,8,107,102,-44
N#CC1(c2ccccc2)CCC(=O)CC1,7,102,102,-17
C=CCN1CCN(C(=O)c2csc3ccccc23)CC1,-10,102,104,7
COC(=O)c1sc(C(F)(F)F)c(-c2ccccc2)c1S(=O)(=O)N1CCOCC1,-4,104,108,-10
CC(=O)N1[C@@H](C2C(=O)NN=C2C)C[C@H](C)N1c1ccccc1 (stereo partly drawn),.,103,102,11
CC(C)C(NS(=O)(=O)c1cccc(C(F)(F)F)c1)C(=O)O (stereo not drawn),-5,101,105,-21
CC(C)NC(=O)c1ccccc1NC(=O)c1ccco1,0,102,103,11

# Already shown: an excerpt of the list.
SMILES,Mtb MbtI inh,Polio RdRp inh,Polio RdRp inh intensity,Mtb MenB inh
O=C1CCN(C(=O)CCCn2c(=O)oc3ccccc32)CC1,-26,99,99,-17
CC(Oc1ccccc1)c1nc2ccccc2n1CCOc1ccccc1 (stereo not drawn),-11,103,107,-28
COc1ccc(-c2noc(CCC(=O)NCCCN3CCC(Cc4ccccc4)CC3)n2)cc1,-7,101,103,-2
O=C(O)C1CC(=O)N(CCc2ccccc2)C1 (stereo not drawn),1,102,96,-20
Cn1c(SCc2cc(=O)oc3cc(O)c(O)cc23)nc2ccccc21,14,99,105,-32

# Following part.
SMILES,Mtb MbtI inh,Polio RdRp inh,Polio RdRp inh intensity,Mtb MenB inh
Cc1cc(C(=O)CN(Cc2ccco2)S(=O)(=O)c2ccccc2)c(C)n1C,-14,107,107,-25
Cc1cccc(CN2CCC(C(=O)N3CCC(C)CC3)CC2)c1,6,105,101,-32
CC(C)NS(=O)(=O)c1ccc(NC(=O)C(C)OC(=O)c2ccc(CO)cc2)cc1 (stereo not drawn),1,107,108,-10
CC(C(N)=O)N(c1ccc(Cl)cc1)S(C)(=O)=O (stereo not drawn),-12,102,101,-25
CCOC(=O)c1c(S(=O)(=O)N2CCCc3ccccc32)c(C)n(C)c1C,-8,101,103,-8
CCCCNC(=O)c1cnn2c(C(F)F)cc(-c3ccccc3)nc12,-13,100,101,-11
COc1cc2c(cc1-c1cc3cc4ccoc4cc3oc1=O)OCO2,-45,100,101,3
CCC1CCCCN1C(=O)C1=CC(c2ccc(OC)cc2)=NS(=O)(=O)N1C (stereo not drawn),-12,105,98,-15
CC1=C(C)/C(=N\S(=O)(=O)c2ccc(C)cc2)C=C(N2CCOCC2)C1=O,15,101,106,-11
O=C(Nc1nnc(N2CCCCC2)s1)NC12CC3CC(CC(C3)C1)C2,-10,103,104,-20
COc1ccc(C2NCCc3[nH]cnc32)cc1OC (stereo not drawn),-6,100,100,-23
O=C(O)CC(CC(=O)Nc1cc(C(F)(F)F)cc(C(F)(F)F)c1)c1ccc(Cl)cc1Cl (stereo not drawn),-8,101,103,-10
O=C(/C=C/c1ccc(-c2ccc(F)cc2)o1)N1CCCC1,-7,100,104,.
CC(C)N1CCC(NC(=O)NC2CCCCC2)CC1,.,101,104,6
Cc1nccn1C(=O)c1cc2ccccc2oc1=O,8,99,103,3
Cc1c(Cl)cccc1-n1ccn(CC#N)c(=O)c1=O,-6,106,95,-27
c1ccc(-c2nc3ccccc3nc2N2CCCCC2)cc1,10,101,103,-13
C=CCc1cccc(/C=N/n2c(-c3ccccc3C)n[nH]c2=S)c1O,13,98,100,-59
CC1CCCC(C)N1C(=O)c1ccccc1N (stereo not drawn),6,101,103,8
COc1cc(C(=O)OCc2cc3ccccc3nc2Cl)cc2c1OCCO2,5,101,98,0

# 29 of the compounds above, bar-delimited.
compound | Mtb MbtI inh | Polio RdRp inh | Polio RdRp inh intensity | Mtb MenB inh
O=C1CCN(C(=O)CCCn2c(=O)oc3ccccc32)CC1 | -26 | 99 | 99 | -17
CC(Oc1ccccc1)c1nc2ccccc2n1CCOc1ccccc1 (stereo not drawn) | -11 | 103 | 107 | -28
COc1ccc(-c2noc(CCC(=O)NCCCN3CCC(Cc4ccccc4)CC3)n2)cc1 | -7 | 101 | 103 | -2
O=C(O)C1CC(=O)N(CCc2ccccc2)C1 (stereo not drawn) | 1 | 102 | 96 | -20
Cn1c(SCc2cc(=O)oc3cc(O)c(O)cc23)nc2ccccc21 | 14 | 99 | 105 | -32
CCOC(=O)CC1=NC(=O)CS1 | 8 | 107 | 102 | -44
N#CC1(c2ccccc2)CCC(=O)CC1 | 7 | 102 | 102 | -17
C=CCN1CCN(C(=O)c2csc3ccccc23)CC1 | -10 | 102 | 104 | 7
COC(=O)c1sc(C(F)(F)F)c(-c2ccccc2)c1S(=O)(=O)N1CCOCC1 | -4 | 104 | 108 | -10
CC(=O)N1[C@@H](C2C(=O)NN=C2C)C[C@H](C)N1c1ccccc1 (stereo partly drawn) | . | 103 | 102 | 11
CC(C)C(NS(=O)(=O)c1cccc(C(F)(F)F)c1)C(=O)O (stereo not drawn) | -5 | 101 | 105 | -21
CC(C)NC(=O)c1ccccc1NC(=O)c1ccco1 | 0 | 102 | 103 | 11
Cc1cc(C(=O)CN(Cc2ccco2)S(=O)(=O)c2ccccc2)c(C)n1C | -14 | 107 | 107 | -25
Cc1cccc(CN2CCC(C(=O)N3CCC(C)CC3)CC2)c1 | 6 | 105 | 101 | -32
CC(C)NS(=O)(=O)c1ccc(NC(=O)C(C)OC(=O)c2ccc(CO)cc2)cc1 (stereo not drawn) | 1 | 107 | 108 | -10
CC(C(N)=O)N(c1ccc(Cl)cc1)S(C)(=O)=O (stereo not drawn) | -12 | 102 | 101 | -25
CCOC(=O)c1c(S(=O)(=O)N2CCCc3ccccc32)c(C)n(C)c1C | -8 | 101 | 103 | -8
CCCCNC(=O)c1cnn2c(C(F)F)cc(-c3ccccc3)nc12 | -13 | 100 | 101 | -11
COc1cc2c(cc1-c1cc3cc4ccoc4cc3oc1=O)OCO2 | -45 | 100 | 101 | 3
CCC1CCCCN1C(=O)C1=CC(c2ccc(OC)cc2)=NS(=O)(=O)N1C (stereo not drawn) | -12 | 105 | 98 | -15
CC1=C(C)/C(=N\S(=O)(=O)c2ccc(C)cc2)C=C(N2CCOCC2)C1=O | 15 | 101 | 106 | -11
O=C(Nc1nnc(N2CCCCC2)s1)NC12CC3CC(CC(C3)C1)C2 | -10 | 103 | 104 | -20
COc1ccc(C2NCCc3[nH]cnc32)cc1OC (stereo not drawn) | -6 | 100 | 100 | -23
O=C(O)CC(CC(=O)Nc1cc(C(F)(F)F)cc(C(F)(F)F)c1)c1ccc(Cl)cc1Cl (stereo not drawn) | -8 | 101 | 103 | -10
O=C(/C=C/c1ccc(-c2ccc(F)cc2)o1)N1CCCC1 | -7 | 100 | 104 | .
CC(C)N1CCC(NC(=O)NC2CCCCC2)CC1 | . | 101 | 104 | 6
Cc1nccn1C(=O)c1cc2ccccc2oc1=O | 8 | 99 | 103 | 3
Cc1c(Cl)cccc1-n1ccn(CC#N)c(=O)c1=O | -6 | 106 | 95 | -27
c1ccc(-c2nc3ccccc3nc2N2CCCCC2)cc1 | 10 | 101 | 103 | -13

# Screening data (PubChem BioAssay)
